# Assay outcomes deposited in PubChem BioAssay by Southern Research Institute.
# Mtb growth = Mycobacterium tuberculosis H37Rv growth inhibition, cell based, confirmatory dose response (AID 1949) | inhibition, % at 10 µg/mL, or IC50 in µg/mL where a hit was titrated | M. tuberculosis H37Rv growth inhibition | actives 1.6% (n = 100,000) | most inactive calls were filed without a number and no value below 0 was filed;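 active = confirmed in a dose series; inconclusive = about 50% or more but not retested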;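 also: bacteria grown 7 days with compound before Alamar blue readout; 0% = untreated bacteria and 100% = reference antibiotic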
# * = called active by the depositor; i = inactive; ? = inconclusive.
# Sample of the layout, 4 compounds:
molecule | Mtb growth
O=C(Nc1ccc(N2CCN(Cc3ccccc3Cl)CC2)cc1)c1cccnc1 | 1.8%
Cc1ccccc1C(=O)Nc1cccc(NC(=O)c2ccccc2F)c1 | i
Cc1cc(NC(=O)C2CC(c3cccc(Br)c3)=NO2)no1 (stereo not given) | i
O=C(c1cccc2ccccc12)N1CCN(Cc2c[nH]c3ccccc23)CC1 | i

# The listing (from the top)
molecule | Mtb growth
O=C(Nc1ccc(N2CCN(Cc3ccccc3Cl)CC2)cc1)c1cccnc1 | 1.8%
Cc1ccccc1C(=O)Nc1cccc(NC(=O)c2ccccc2F)c1 | i
Cc1cc(NC(=O)C2CC(c3cccc(Br)c3)=NO2)no1 (stereo not given) | i
O=C(c1cccc2ccccc12)N1CCN(Cc2c[nH]c3ccccc23)CC1 | i
O=C(NCCC1=CCCCC1)C1CCN(S(=O)(=O)c2ccccc2)CC1 | i
CC1CN(C2CCN(Cc3ccc(Br)cc3)CC2)CC(C)O1 (stereo not given) | i
O=C(Nc1ccc2c(c1)oc1ccc(S(=O)(=O)N3CCCC3)cc12)C1CC1 | i
Cc1cc(C)c(NC(=O)CSc2nnc(Cc3ccccc3)n2C)c(C)c1 | i
Cc1ccc(C)n1-c1n[nH]c(=S)s1 | i
COc1cccc(C2=NN(C(=O)c3ccccc3Cl)C(c3cccs3)C2)c1 (stereo not given) | i

# (list continues)
molecule | Mtb growth
COc1ccc(N2CCN(C(=O)CCSc3ccc(C)cc3)CC2)cc1 | i
O=C(c1cc(Br)ccc1Cl)N1CCN(Cc2ccccc2)CC1 | i
CCOC(=O)c1ccc(NC(=O)CSc2nnc(CNC(=O)c3ccccc3C)n2C)cc1 | 1.6%
Cc1sc2ncn(CCn3cnc4sc(C)c(C)c4c3=O)c(=O)c2c1C | i
CN(Cc1ccccc1)C(=S)NC(=O)Cc1cccc2ccccc12 | i
COc1ccccc1NC(=S)NCCc1ccc(Cl)cc1 | 0.9%
COC(=O)c1ccccc1NC(=O)C1CCN(C(=O)c2ccc(Cl)cc2Cl)CC1 | 5.4%
COc1ccc(CN2CCN(Cc3ccccc3)CC2)cc1Br | 4.0%
CCC(Sc1nnc(NC(=O)c2ccccc2Cl)s1)C(=O)Nc1nccs1 (stereo not given) | i
CC(=O)N1c2ccccc2CCc2ccc(NC(=O)CCC3CCCC3)cc21 | i

# Carrying on.
molecule | Mtb growth
Nc1nnc(SC/C=C/CSc2nnc(N)s2)s1 | i
COc1ccc(NC(=O)C2CCN(S(=O)(=O)c3ccc(C)cc3)CC2)cc1Cl | i
COc1cccc(NC(=O)C2CC(=O)N(C(C)c3ccccc3)C2)c1 (stereo not given) | i
CCN1CCC(N2CCN(C)CC2)CC1 | i
O=C(CCN1C(=O)c2ccccc2C1=O)Nc1cccc2c1CCCC2 | i
COc1ccc(-n2c(SCC(=O)NC3CCCCC3)nnc2-c2cccs2)cc1 | i
O=C(CN(c1cccc(Cl)c1)S(=O)(=O)c1ccc(Cl)cc1)Nc1ccc2c(c1)OCCO2 | i
CCC(C)c1ccccc1OCC(=O)Nc1ccc(S(=O)(=O)Nc2nccs2)cc1 (stereo not given) | i
Cc1nnc(SCCN2C(=O)c3ccccc3C2=O)[nH]c1=O | i
Cn1ccnc1SCC(=O)c1ccc([N+](=O)[O-])cc1 | i

# Following part:
molecule | Mtb growth
CN(C)CCOCCOc1ccc(Cl)cc1C(C)(C)C | 0.9%
CCOc1cc(S(=O)(=O)NCCOC)ccc1F | i
COc1ccc(NC(=O)c2ccccc2[N+](=O)[O-])cc1 | 0.3%
C=CCn1c(SCC(=O)Nc2ccc(OC)cc2)nc2sc(C)c(C)c2c1=O | i
COc1ccc(CNC(=O)C(=O)Nc2ccc(C#N)cc2)cc1 | i
CN(C)c1ccc(CNc2ccc3c(c2)ncn3C2CCCCC2)cc1 | i
CCOC(=O)C1CCN(C(=O)CN(C)S(=O)(=O)c2cc(Cl)ccc2Cl)CC1 | 2.9%
COC(=O)c1nnn(-c2nonc2N)c1CSc1ccccn1 | 0.8%
COc1ccc(-c2nc(-c3ccccc3)c(-c3cccs3)[nH]2)c(OC)c1 | ?
CNC(=O)c1cc(Nc2nnc(-c3ccc(OC)cc3)c3ccccc23)ccc1OC | i

# Remaining list, next part.
molecule | Mtb growth
O=C(C1=C(O)C(=O)N(Cc2ccco2)C1c1ccccc1F)c1cccs1 (stereo not given) | i
COc1c(Cl)cc(Cl)cc1C(=O)Nc1ccc(N2CCN(C(=O)c3ccccc3C)CC2)cc1 | 45.8%
CCCOC(=O)C1=C(C)NC2=C(C(=O)CC(C)(C)C2)C1c1ccc(O)c([N+](=O)[O-])c1 (stereo not given) | 1.1%
CC(NC(=O)CN1CCCC1)C12CC3CC(CC(C3)C1)C2 (stereo not given) | i
Cc1nonc1OCCNc1cc(N2CCCC2)ccc1[N+](=O)[O-] | 2.2%
COc1ccc(N2CCN(C(=O)c3cccc(Br)c3)CC2)cc1 | 1.4%
CCOc1ccccc1Nc1ncnc2ccc(Br)cc12 | 22.0%
CC(O)CNCCNCc1cccs1 (stereo not given) | i
O=C(CSc1nnc(-c2ccc([N+](=O)[O-])cc2)n1Cc1ccccc1)N1CCCC1 | i
CC1=NN(C(C#N)c2ccccc2O)C(C)(C)C1 (stereo not given) | 0.6%

# Reformatted with each value named: part of the list above.
O=C(C1=C(O)C(=O)N(Cc2ccco2)C1c1ccccc1F)c1cccs1 (stereo not given)
  Mtb growth: i

CCOc1ccccc1Nc1ncnc2ccc(Br)cc12
  Mtb growth: 22.0%

# Additional structures
molecule | Mtb growth
CC(=O)c1cccc(NC(=O)CN(c2cc(Cl)ccc2Cl)S(=O)(=O)c2ccccc2)c1 | i
CN1C(=O)c2ccc(NC(=O)c3cccc(I)c3)cc2C1=O | i
COC(=O)c1ccc(C(=O)OC)c(NC(=O)c2cnn3c(C(F)F)cc(-c4ccc(C)cc4)nc23)c1 | i
NC1=NC(=O)CC(C(=O)Nc2ccc(I)cc2)S1 (stereo not given) | i
COc1cc([N+](=O)[O-])cc2cc(C(=O)Nc3ccc(Br)cc3)c(=O)oc12 | i
COc1ccc(C2CC(=O)Nc3cc(OC)c(OC)cc32)c(OC)c1 (stereo not given) | i
Cc1ccc(Cl)cc1NS(=O)(=O)c1ccc(NS(C)(=O)=O)cc1 | i
CCOC(=O)c1c(NC(=O)CN2C(=O)c3ccccc3S2(=O)=O)sc2c1CCCC2 | 0.6%
Cc1ccc2nc(-c3ccncc3)cc(C(=O)Nc3ccncc3)c2c1 | i
O=[N+]([O-])/C=C/c1c[nH]c2ccc(Br)cc12 | 8.61µg/mL*

# (continued)
molecule | Mtb growth
COc1cc(COc2cc3oc(=O)c4c(c3cc2Cl)CCC4)cc(OC)c1OC | i
CC1CCN(C(=O)c2ccccc2N(C)S(C)(=O)=O)CC1 | i
CCn1c(SCC(=O)Nc2ccccc2C(C)C)nnc1C(C)NC(=O)c1ccccc1 (stereo not given) | i
COc1ccc(S(=O)(=O)NCCC(C)C)cc1C | i
COC(=O)C12C(=O)Oc3ccc(Br)cc3C1C2(C)C(=O)c1ccc(C)cc1 (stereo not given) | i
COc1ccc(NC(=O)C2CCN(C(=O)c3cc(OC)c(OC)c(OC)c3)CC2)cc1OC | i
CCOC(=O)COc1ccc2ccccc2c1/C=C(\C)[N+](=O)[O-] | 0.5µg/mL*
CCOC(=O)N1CCN(C(=O)Nc2ccc(Cl)cc2Cl)CC1 | i
CC1CCN(c2ccc(NC(=O)COc3ccc(Cl)cc3Cl)cc2)CC1 | i
CCc1ccc(OC(C)c2nnc(SCC(=O)Nc3ccc(C(=O)OC)cc3)n2CC)cc1 (stereo not given) | i

# Next section.
molecule | Mtb growth
Cc1cc(=O)oc2cc(OCc3cccc(C(F)(F)F)c3)c(Cl)cc12 | i
COc1ccc(Br)cc1S(=O)(=O)NC1CCCCC1C (stereo not given) | 0.2%
O=C(CN(Cc1c(Cl)cccc1Cl)S(=O)(=O)c1ccc(Cl)cc1)NC1CC1 | 1.3%
CCOC(=O)c1c(NC(=S)NC(=O)c2ccccc2)sc2c1CCN(CC)C2 | i
Cc1ccc2nc(Nc3nccc(C)n3)nc(C)c2c1 | i
CCOc1ccc(S(=O)(=O)NC)c2ccccc12 | i
COc1ccccc1Nc1nc2ccccc2n1C | 8.5%
CCOC(=O)C(=O)Nc1ccc(C(=O)OC)cc1 | i
Cc1cccc(C)c1N1CCN(CC(=O)Nc2cc(Cl)ccc2Cl)CC1 | i
COC(=O)c1ccc(NC(=O)CSc2nnc(-c3cccnc3)n2-c2ccc(Br)cc2)cc1 | i

# (listing goes on)
molecule | Mtb growth
CCOC(=O)c1cccc(NC2=C(Cl)C(=O)N(c3cccc(Cl)c3)C2=O)c1 | i
Brc1ccc2nc(NCc3ccccn3)nc(-c3ccccc3)c2c1 | i
CCc1nn(-c2ccccc2)c(N)c1-c1ccc(OC)c(OC)c1 | 2.7%
Cc1cc(-c2ccc(NC(=O)CCc3ccccc3)c(C)c2)ccc1NC(=O)CCc1ccccc1 | i
O=C(Nc1ccc(Cl)cc1C(F)(F)F)c1ccccc1 | i
CC(=O)c1c(C(C)=O)c(C)n(-c2nc(-c3cccs3)c(C)s2)c1C | i
COC(=O)c1sc(NC(=O)Cc2c(F)cccc2Cl)c(C(=O)OC)c1C | i
Cc1ccc(OCc2cccc3nsnc23)cc1[N+](=O)[O-] | 0.2%
CCCCNC(=S)Nc1ccc(C23CC4CC(CC(C4)C2)C3)cc1C | 2.0%
Cc1nc(C)c(C(=O)C2=C(O)C(=O)N(CCN3CCOCC3)C2c2cccs2)s1 (stereo not given) | 0.4%

# (more compounds)
molecule | Mtb growth
CC(C)NC(=O)C(=O)NCCN1CCN(Cc2ccccc2F)CC1 | i
CC1Cc2ccccc2N1C(=O)c1ccc2nc(N3C(=O)c4ccccc4C3=O)sc2c1 (stereo not given) | i
CCN(CC)C(=O)c1sc(NC(=S)Nc2ccc(S(=O)(=O)Nc3ccc(Cl)cc3)cc2)c(C(=O)OC)c1C | i
N#Cc1c(SCC(=O)Nc2nc3ccccc3s2)nsc1SCC(=O)Nc1nc2ccccc2s1 | 0.4%
CCCN1C(=O)C(O)(CC(=O)c2ccc(OC)cc2)c2ccccc21 (stereo not given) | i
Cc1ccc(OCCNC(=O)c2ccc(Br)cc2)cc1 | 5.0%
COc1ccc(C)cc1NC(=O)CCN1C(=O)c2ccccc2C1=O | i
CCOC(=O)CCCSc1nc2sc(C(=O)O)c(C)c2c(=O)[nH]1 | i
C=CCOc1ccc(NC(=O)C(=O)NC(C)c2ccccc2)cc1 (stereo not given) | 6.7%
Cc1ccc(OCC(=O)Nc2ccc(Cl)cc2Cl)c(C(C)(C)C)c1 | i

# Next compounds follow:
molecule | Mtb growth
COc1ccc(OC)c(CN2CCN(Cc3ccccc3C)CC2)c1 | i
CC1(C)CC(NC(=S)NC2CCCC2)CC(C)(C)N1 | i
C=CCNC(=O)CN(c1ccc(OCC)cc1)S(=O)(=O)c1ccc(OC)c(OC)c1 | i
CCN(CC)C(=O)C1=C(C)NC(=S)NC1c1ccccc1OC (stereo not given) | i
OCCCNC(c1ccccc1)c1ccc(O)cc1 (stereo not given) | 0.7%
NCCCN1CCN(c2ccccc2)CC1 | i
O=C(Nc1ccc2c(c1)OCO2)c1ccccc1N(Cc1ccccc1)S(=O)(=O)c1ccccc1 | 3.4%
CCc1nnc(NC(=O)CSC2=NCCS2)s1 | 3.7%
CCOC(=O)c1ccccc1NC(=O)c1ccccc1C | 5.5%
COc1ccc(S(=O)(=O)C(F)(F)F)cc1N | 0.5%

# Remaining list, next part:
molecule | Mtb growth
CC(C)(C)CC(=O)Nc1ccccc1F | i
CN(C)S(=O)(=O)n1cnc(-c2ccccc2)c1-c1ccccc1 | 0.2%
O=C(Nc1ccc(Br)c2ccccc12)c1ccc([N+](=O)[O-])cc1 | i
O=C(O)c1ccc(-n2nnnc2SCc2ccccc2F)cc1 | i
CCc1cccc(C)c1NC(=O)CN(Cc1ccc(Cl)cc1)S(=O)(=O)c1ccc(Cl)cc1 | 0.4%
COc1ccc(C)cc1NC(=O)c1ccccc1N(C)S(C)(=O)=O | i
Cc1cc(=O)oc2cc(OCC(=O)c3ccccc3F)ccc12 | i
COCCN1C(=O)c2oc3ccccc3c(=O)c2C1c1cccc([N+](=O)[O-])c1 (stereo not given) | 0.6%
COc1ccc(NS(C)(=O)=O)cc1Cl | 4.9%
CC(=O)CSc1nnc2ccccn12 | i

# More structures
molecule | Mtb growth
OC(COc1ccc2c(c1)CCC2)CN1CCN(c2cccc(Cl)c2)CC1 (stereo not given) | 31.2%
Cc1ccc(-c2nc(-c3ccc(Br)cc3)no2)cc1 | i
Cc1cnc(NC(=O)C(C)Oc2cccc(Cl)c2)s1 (stereo not given) | ?
COc1ccc(C(=O)NC(=S)Nc2ccc(S(=O)(=O)NC(C)=O)cc2)cc1Br | i
CCN(CC)C(=S)NC(=O)c1ccc(F)cc1 | 3.03µg/mL*
O=c1c2ccccc2nc(CSc2ncnc3nc[nH]c23)n1-c1ccccc1Cl | i
COc1cccc(C2Nc3ccc([N+](=O)[O-])cc3C3c4ccccc4CC23)c1OC (stereo not given) | i
CCCCOc1ccc(C(=O)Nc2ccc(C(=O)O)cc2)cc1 | i
CC(C)C(=O)Nc1cccc(C(=O)Nc2ccc(C(=O)O)cc2)c1 | i
CC1CN(C(=O)c2cc3cc(Cl)ccc3oc2=O)CC(C)O1 (stereo not given) | i

# The list goes on:
molecule | Mtb growth
FC(F)(F)c1ccccc1NC(=S)NCc1ccc2c(c1)OCO2 | 6.1%
Cc1ccc(NC(=S)Nc2ccc3c(c2)OCO3)c(OC(F)F)c1 | i
Cc1cc(N2CCCCC2)nc(N2CCCCC2)n1 | i
Cc1ccc(C(=O)NC(=S)Nc2nc(-c3cccc4ccccc34)cs2)cc1 | 16.3%
O=C(CSc1nc2ccccc2c(=O)n1-c1ccccc1)Nc1ccc2c(c1)OCO2 | i
O=[N+]([O-])c1ccc(S(=O)(=O)Nc2ccc(-c3nnc(-c4ccccc4)o3)cc2)cc1 | i
CC(C)(C)c1ccc(S(=O)(=O)NCc2ccc(C(=O)N3CCOCC3)cc2)cc1 | i

# These rows are one share of the data (hit frequency here may not be typical).
